# miR-21 reporter: raises the signal of a miR-21 reporter. HeLa miR-21 FLuc reporter, luciferase, 48 h. Potency, µM (series often up to 38.3 µM), for the others: at the top dose reporter change, positive = more light. 340,000 tested, under 10 active. AID 2288; active = well fitted rising curve with a large enough effect; inconclusive = small, poorly fitted or top-dose-only effect; inactive = no such curve, though single readings can be large or run the other way;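 note: % of control where 0% means no effect; miR-21 action dims this reporter so a rising signal means less miR-21 action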
#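 HeLa miR-21-FLuc reporter line, endogenous miR-21; 2000 cells/well in DMEM/10% FBS; compound titration up to ~40uM final, 48 h, 37 degree Celsius; luciferase detection reagent, 15 min lysis, CCD luminescence.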
# Numbers without * were called inactive; ? = inconclusive; & = joins results of further samples. This is a subset (hit frequency here may not be typical).
SMILES,miR-21 reporter
Cc1nnc(N2CCCC(C(=O)NCc3ccccc3F)C2)c2nn(-c3ccc(Cl)cc3)c(C)c12 (stereo not drawn),0%
COCCCNC(=O)CCC(=O)N1Cc2cccc(OC)c2Oc2ncccc21,1%
O=C(Nc1ccc(F)c(Cl)c1)N1CCC(CN2CCc3ccccc3C2)CC1,1%
Cc1ccc(C)c(Cn2c(=O)n(CCCCC(=O)NCc3ccc4c(c3)OCO4)c(=O)c3ccccc32)c1,1%
COc1ccc(CC(=O)Nc2nc3c(s2)CCCC3)cc1,5%
Cc1ccc(-n2nc(C(=O)N3CCN(c4ccccc4)CC3)c(=O)n(C)c2=O)cc1,29%
COc1cccc2cc(-c3nc(Nc4cccc(C)c4C)sc3C)c(=O)oc12,15%
COc1ccc(OC)c(NC(=O)CN2C(=O)CC(C)Sc3ccccc32)c1 (stereo not drawn),2%
Cc1cccc(NC(=O)c2oc3ccc(S(=O)(=O)N(C)C4CCCCC4)cc3c2C)c1C,15%
O=C(CN1C(=O)CSc2ccc(S(=O)(=O)N3CCCC3)cc21)NCc1ccc(F)cc1Cl,-4%
COC(=O)c1c(NC(=O)Cc2coc3cc(C)cc(C)c23)sc2c1CCC2,5%
COc1ccc(-c2nnc3n2N(C(C)=O)C(c2ccc(Cl)c(Cl)c2)=C(C(C)=O)S3)cc1,0%
NS(=O)(=O)c1ccc(CCNc2nc3c(-c4cccc(F)c4)nnn3c3ccc(Cl)cc23)cc1,-30%
O=C(NCCc1ccc(Cl)cc1)c1cccn1-c1nnc(N2CCCCC2)s1,6%
CCOC(=O)c1ccc(-n2c(N)c(C(=O)OC)c3nc4ccccc4nc32)cc1,-12%

# The closing 3 records of the part above are carried over, then new ones follow.
SMILES,miR-21 reporter
NS(=O)(=O)c1ccc(CCNc2nc3c(-c4cccc(F)c4)nnn3c3ccc(Cl)cc23)cc1,-30%
O=C(NCCc1ccc(Cl)cc1)c1cccn1-c1nnc(N2CCCCC2)s1,6%
CCOC(=O)c1ccc(-n2c(N)c(C(=O)OC)c3nc4ccccc4nc32)cc1,-12%
CN(C)S(=O)(=O)c1ccc2c(c1)N(CC(=O)Nc1ccc(F)cc1)C(=O)CS2,-1%
Cc1ccc(-n2nc3c(=O)n(C(C)C(=O)NCc4ccccc4C)nc(C)c3c2C)cc1 (stereo not drawn),5%
Cc1ccc(C)c(S(=O)(=O)n2nc(C)c(S(=O)(=O)N3CCCCCC3)c2C)c1,0%
Cc1ccc(C)c(NC(=O)c2ccc3nc(CCc4ccccc4)oc3c2)c1,-18%
COc1ccc(CCNC(=O)CN(c2ccccc2)S(=O)(=O)N(C)C)cc1OC,0%
CCOc1ccccc1C(=O)N(Cc1ccco1)Cc1ccco1,12%
COc1ccc2nc(NC(=O)c3nc(SC(C)C)ncc3Cl)sc2c1,-2%
COc1cc(CNC(=O)c2ccc(NC(=O)N3CCCCc4ccccc43)cc2)cc(OC)c1OC,10%
CCOc1cc(CNC(=O)NC2COc3ccc(OC)cc3C2)cc(OCC)c1OCC (stereo not drawn),6%
O=C(CN1C(=O)C2(SCC(=O)N2c2cccc(Cl)c2)c2ccccc21)NCCc1ccccc1 (stereo not drawn),-2%
CCOc1ccc(-n2c(SCC(=O)N3CCC(C)CC3)nc3c([nH]c4ccccc43)c2=O)cc1,5%
COc1ccc(NC(=O)Cn2c(=O)n(CCC(C)C)c(=O)c3cccnc32)cc1Cl,-1%
O=C(CSc1nc2c([nH]c3ccccc32)c(=O)n1-c1ccc(F)cc1)Nc1ccc2c(c1)OCCO2,7%
Cc1ccc(-c2nnc(SCC(=O)NCc3ccccc3)o2)cc1,-2%
COc1ccc(Cl)cc1S(=O)(=O)N1CCN(C(=O)c2cc(-c3ccc(Br)cc3)n[nH]2)CC1,?

# Reformatted as labelled records: entries from further up.
molecule: COc1ccc2nc(NC(=O)c3nc(SC(C)C)ncc3Cl)sc2c1
  miR-21 reporter = -2%
molecule: COc1cc(CNC(=O)c2ccc(NC(=O)N3CCCCc4ccccc43)cc2)cc(OC)c1OC
  miR-21 reporter = 10%
molecule: CCOc1cc(CNC(=O)NC2COc3ccc(OC)cc3C2)cc(OCC)c1OCC (stereo not drawn)
  miR-21 reporter = 6%
molecule: O=C(CN1C(=O)C2(SCC(=O)N2c2cccc(Cl)c2)c2ccccc21)NCCc1ccccc1 (stereo not drawn)
  miR-21 reporter = -2%

# (continued)
SMILES,miR-21 reporter
COc1ccc(C)cc1NC(=O)c1cc2c(=O)n(Cc3cccnc3)ccc2nc1C,-5%
CCN1C(=NCc2cc(OC)c(OC)c(OC)c2)N[C@@H](c2ccccc2)[C@H](C(=O)OC)[C@H]1C,3%&2%
COCCCNC(=O)c1ccc(Cn2c(SCc3ccc(F)cc3)nc3cccnc32)cc1,3%
O=S(=O)(c1ccc(F)cc1)N1CCCc2ccccc21,-16%
Cc1ccc(CNC(=O)CCCn2c(=O)c3ccccc3n(Cc3ccccc3Cl)c2=O)cc1,2%
COc1ccccc1NC(=O)CSc1nc(-c2ccc(C)cc2)nc2c1Cc1c(CO)cnc(C)c1O2,-1%
COc1ccc(S(=O)(=O)N(CC(=O)NCCSc2ccc(C)cc2)c2ccc(C)cc2)cc1,1%
Cc1ccc(N2CCN(S(=O)(=O)c3cccc4ccccc34)CC2)cc1Cl,2%
CCN(C(=O)CCc1nc(-c2ccc(C)cc2)no1)c1cc(C)ccc1C,13%
O=C(COc1ccc2ccccc2c1)NC1CC(=O)N(c2ccccc2)C1 (stereo not drawn),-7%
COc1ccc2c(c1)c1c(c(=O)n(Cc3ccccc3)c(=O)n1CC(=O)Nc1ccccc1F)n2C,-10%
Cc1c(C(=O)Nc2ccc(C(C)C)cc2)sc2nc3n(c(=O)c12)CCC3,9%
Fc1ccccc1-n1ncc2c1ncn1nc(Cc3ccccc3)nc21,-45%
COc1ccc(C2C(C(N)=O)=C(C)Nc3nc(SCc4ccccc4Cl)nn32)cc1OC (stereo not drawn),0%
COC(=O)C1=C(C)N(Cc2ccccc2)C(=S)N[C@H]1CCc1ccccc1,5%
CCOc1ccc(Cl)cc1C1CC(=O)Nc2cc(OC)c(OC)c(OC)c21 (stereo not drawn),3%
NC(=O)C1CCN(C(=O)c2ccc(NC(=O)c3nsc4ccccc34)cc2)CC1,3%
COc1ccc2c(c1)c1c(c(=O)n(CCc3ccccc3)c(=O)n1Cc1cccc(C)c1)n2C,10%
CCCOc1ccc(C2C(=O)N(C3CCCCCC3)CC(=O)N2CCC2=CCCCC2)cc1OC (stereo not drawn),-1%
Fc1ccc(-n2ncc3c(NC4CCCCCC4)ncnc32)cc1,-38%
NC(=O)c1cc(S(=O)(=O)NCC2CCC(C(=O)Nc3ccc(Cl)cc3)CC2)cs1 (stereo not drawn),0%
COc1ccc(OC)c(C2CC(=O)Oc3c2c(=O)n(C)c2ccccc32)c1 (stereo not drawn),-8%
O=C(NCCc1ccccc1Cl)c1ccc2c(c1)nc1n2CCCCC1,27%
COc1ccc(S(=O)(=O)N2CCC(C(=O)Nc3ccccc3)CC2)cc1OC,-7%
CCCc1nc2sc3c(N4CCC(C)CC4)ncnc3c2c2c1CCCC2,-3%
Cc1cccc(C)c1OCc1nc2c3cnn(-c4ccccc4Br)c3ncn2n1,-1%
O=C(Cn1cc(C(=O)c2cccs2)c2ccccc21)Nc1ccc(Br)cc1,-3%
CC1CCCCN1CCCNC(=O)Cn1ncc2c3ccccc3n(Cc3ccccc3)c2c1=O (stereo not drawn),0%
CCOc1ccccc1CNC(=O)Cn1c(-c2ccccc2)cc(C(C)=O)c1C,-5%
CCCCCn1c(=O)[nH]c2cc(C(=O)Nc3ccc(F)cc3)ccc2c1=O,-12%

# 3 entries picked at random from those above:
SMILES,miR-21 reporter
CCOc1ccc(Cl)cc1C1CC(=O)Nc2cc(OC)c(OC)c(OC)c21 (stereo not drawn),3%
COc1ccc(OC)c(C2CC(=O)Oc3c2c(=O)n(C)c2ccccc32)c1 (stereo not drawn),-8%
CCCc1nc2sc3c(N4CCC(C)CC4)ncnc3c2c2c1CCCC2,-3%

# New compounds follow:
SMILES,miR-21 reporter
O=C(COc1ccccc1Cl)Nc1ccc2nc(SCC(=O)N3CCCC3)sc2c1,19%
Cc1ccc2c(=O)cc(C(=O)Nc3ccc(S(=O)(=O)N4CCCCCC4)cc3)oc2c1,0%
COc1ccc(S(=O)(=O)NCCc2sc3nc(-c4ccc(C)cc4)nn3c2C)cc1F,28%
CCc1ccc(S(=O)(=O)Nc2ccc3c(c2)n(C)c(=O)c(=O)n3C)cc1,13%
Cc1ccc(C(=O)Nc2nc3ccc(S(=O)(=O)N4CCCC4)cc3s2)cc1,-7%
Cc1ccc2c(c1)N(C(=O)Nc1cccc3c1CCCC3)CCO2,-1%
O=c1oc2ccccc2c(N2CCN(c3ccc(F)cc3)CC2)c1CN1CCCC1,-2%
CCOc1ccc(NC(=O)Cn2c(=O)oc3cc(S(=O)(=O)N4CCC(C)CC4)ccc32)cc1,4%
Cc1ccc(Cl)cc1N1CCN(C(=O)Cn2nc(C)n3c(cc4sccc43)c2=O)CC1,-3%
CCOC(=O)c1cnc2c(Cl)c(Cl)ccc2c1Nc1ccc(N(C)C)cc1,-7%
CCOc1ccc(CNC(=O)c2ccc3c(c2)nc2n3CCCCC2)cc1,-66%
Cc1cc(C)cc(NC(=O)c2cccc(C(=O)Nc3cc(C)cc(C)c3)c2)c1,-4%
NS(=O)(=O)c1ccc(CCNc2nccn(-c3cccc(C(F)(F)F)c3)c2=O)cc1,7%
CC(=O)NCCNC(=O)CCCc1nnc2n(C)c(=O)c3sccc3n12,6%
CCOC(=O)c1ccccc1NC(=O)Cn1c(=O)n(CCC(=O)NCc2ccccc2OC)c(=O)c2ccccc21,0%
COc1ccc(NC(=O)c2cc3c([nH]c2=O)CC(c2ccccc2)CC3=O)cc1 (stereo not drawn),-2%
Cc1nc2cccnc2n1-c1cccc(C(=O)NCc2cccc(Cl)c2)c1,13%
COc1cccc(-c2nnc(SCC(=O)N3CCc4ccccc43)o2)c1,2%
CC(C)Cn1c(=O)c2sccc2n2c(CCCC(=O)NCC(C)c3ccccc3)nnc12 (stereo not drawn),12%
CN1CCN(c2nc3c(S(=O)(=O)c4ccc(Cl)cc4)nnn3c3ccsc23)CC1,-14%
Cc1ccc2oc3c(c(=O)c2c1)C(c1ccc(F)cc1)N(c1nc(C)c(C)s1)C3=O (stereo not drawn),2%
Cc1ccc(-c2cn(-c3cccc(Cl)c3)c(S(=O)(=O)CC(=O)Nc3ccccc3F)n2)cc1,-25%
O=C(CSc1oc(-c2ccccc2)nc1S(=O)(=O)c1ccc(Cl)cc1)c1ccccc1,0%
CCOC(=O)CN1C(=O)N(c2ccc(C)c(C)c2)S(=O)(=O)c2ccccc21,6%
CCCSc1nc2sc3c(c2c(=O)n1-c1ccccc1)CCC(C)C3 (stereo not drawn),-1%
CC1CCN(C(=O)CN2CC(C)Sc3ccccc32)CC1 (stereo not drawn),-8%
O=C(c1ccc2c(c1)N(Cc1cccc(Cl)c1)C(=O)c1ccccc1S2(=O)=O)N1CCCC1,2%
CCCn1cc(S(=O)(=O)c2ccccc2)c(=O)c2cc(F)c(N3CCCC3)cc21,-8%
Cc1ccc(Cl)cc1N1CCN(C(=O)Cn2nc(C)c3sc4ccccc4c3c2=O)CC1,-1%
Cc1nn(C)c2c1c(C(F)(F)F)cc(=O)n2CC(=O)NC(C)(C)C,0%

# 2 entries from above, as labelled records:
> CN1CCN(c2nc3c(S(=O)(=O)c4ccc(Cl)cc4)nnn3c3ccsc23)CC1
  miR-21 reporter = -14%
> Cc1ccc2oc3c(c(=O)c2c1)C(c1ccc(F)cc1)N(c1nc(C)c(C)s1)C3=O (stereo not drawn)
  miR-21 reporter = 2%

# Next part:
SMILES,miR-21 reporter
CCNc1cc(N2CCN(C3CCCCC3)CC2)c2noc3c2c1C(=O)c1ccccc1-3,4%
CCC(C)NC(=O)CSc1nc2cc3c(cc2c(=O)n1CCCC(=O)NCCc1ccc(OC)c(OC)c1)OCO3 (stereo not drawn),2%
COc1ccccc1NC(=O)C1=C(C)Nc2nc(-c3ccco3)nn2C1c1ccccc1F (stereo not drawn),6%
Cc1ccc(CNC(=O)c2c(-c3ccc(Br)cc3)noc2C)o1,4%
CCN(C(=O)c1nn(-c2ccc(OC)c(Cl)c2)c(=O)c2c1c1ccccc1n2C)c1cccc(C(F)(F)F)c1,-12%
O=C(CSc1nc(-c2ccccc2)no1)N1CCN(c2ccccc2)CC1,-1%
COc1ccc2c(c1)CC(C(=O)Nc1cc(OC)c(OC)c(OC)c1)CO2 (stereo not drawn),-2%
COc1cccc(CNC(=O)CN2C(=O)N(c3c(C)cccc3C)S(=O)(=O)c3ccccc32)c1OC,25%
CCC(Sc1nnc2c3ccccc3n(C)c2n1)C(=O)Nc1nnc(C(C)C)s1 (stereo not drawn),0%
CS(=O)(=O)N1CCc2cc(S(=O)(=O)NCc3ccccc3Cl)ccc21,-2%
O=S(=O)(c1cccc(Cl)c1)n1c(/C=C/c2ccccc2Cl)nc2ccccc21,?
Cc1nn(CCCC(=O)NCc2ccccc2)c(=O)c2cc3sccc3n12,-2%
COc1ccc(NC(=O)C2=CC(c3ccc4c(c3)OCO4)=NS(=O)(=O)N2C)cc1,-4%
O=C(NCc1ccccc1)c1cccn1-c1nnc(N2CCCC2)s1,-1%
Cc1cccc(Cn2cc(S(=O)(=O)c3ccccc3)c(=O)c3cc(F)c(N4CCOCC4)cc32)c1,-6%
COc1ccc(CNC(=O)CCc2nc3cccnc3n2Cc2ccc(OC)cc2)cc1,-8%
Cc1cccc(-n2ccnc2SCC(=O)Nc2cccc3ccccc23)c1C,6%

# Bioassay records deposited in PubChem by National Center for Advancing Translational Sciences (NCATS).
